Assay outcomes deposited in PubChem BioAssay by Fisher Drug Discovery Resource Center.
NPYLR7 ag – mosquito NPYLR7 agonism; HEK293T NPYLR7/Galpha15, GCaMP6s calcium fluorescence; actives 0.15% (n = 270,000); activation, % at 10 µM; in the data active = activation above about 40%;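 also: 0% = vehicle and 100% = reference agonist at the receptor; some compounds past the cut are filed as inactive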
NPYLR7 ag max-min – recorded beside NPYLR7 ag, whose call it bears; activation, %; measured here: Max-Min RFU normalised activation; some inactives read as strong as hits;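 span of the calcium signal over five minutes; 0% = vehicle and 100% = native peptide agonist; compound fluorescence can raise it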
Active calls of the source: *. These rows are one share of the data; rates above refer to the full screens.

O=C(C=Cc1nc2ccccc2s1)OC1CCOC1=O (centres undefined) was read as NPYLR7 ag 4 and NPYLR7 ag max-min 3.
For Cc1ccc(Oc2cc(CN)ccn2)cc1C the results were NPYLR7 ag 0 and NPYLR7 ag max-min -1.
`Cn1nnc2c(=O)n(CC(=O)OCc3ccccc3)cnc21` gave NPYLR7 ag 1 and NPYLR7 ag max-min 9.
Cc1ccccc1N1CCN(C2CCCN(C(=O)c3ccc(Cl)s3)C2)CC1 (centres undefined) was read as NPYLR7 ag 2 and NPYLR7 ag max-min -2.
`COc1ccc(C(=O)N2CCC(NC(=O)Cn3ccccc3=O)CC2)c(OC)c1` gave NPYLR7 ag 0 and NPYLR7 ag max-min -1.
For CCOC(=O)CCC(=O)N1CCCC(c2nnc(Cc3ccccc3)s2)C1 (centres undefined) the results were NPYLR7 ag -6 and NPYLR7 ag max-min -3.
CCOC(=O)N1CCN(C(=O)CC(c2cccc([N+](=O)[O-])c2)c2c[nH]c3c(CC)cccc23)CC1 (centres undefined) was read as NPYLR7 ag 9 and NPYLR7 ag max-min 11.
`O=C1CCCCC1C1(O)C(=O)Nc2ccccc21` (centres undefined) gave NPYLR7 ag 10 and NPYLR7 ag max-min 4.
CCOc1ccc2c(c1)C=C(C(=O)N(Cc1cccnc1)C1CC1)CO2 was read as NPYLR7 ag 3 and NPYLR7 ag max-min 1.
`COc1ccc2nc(-c3ccc(C)c(NC(=O)c4ccc5ccccc5c4)c3)cn2n1` gave NPYLR7 ag -8 and NPYLR7 ag max-min -14.
For COCCNC(=O)c1cc(NC(=O)c2ccc(OC)cc2)ccc1N1CCN(c2ccccc2OC)CC1 the results were NPYLR7 ag 19 and NPYLR7 ag max-min 14.
`COc1ccc(C2C(=C(O)c3ccccc3)C(=O)C(=O)N2CCN2CCOCC2)cc1` (centres undefined) gave NPYLR7 ag -1 and NPYLR7 ag max-min 4.
`O=C(Nc1nnc(C2CC2)s1)N1CCC(Cc2cccc(F)c2)CC1` gave NPYLR7 ag 6 and NPYLR7 ag max-min 2.
O=C(CC1(C(F)(F)F)NCCN1)c1ccc(Cl)cc1 was read as NPYLR7 ag 7 and NPYLR7 ag max-min 3.
For Cc1ncsc1CCC(=O)N1CCCC(C(=O)c2ccc3c4c(cccc24)CC3)C1 (centres undefined) the results were NPYLR7 ag 5 and NPYLR7 ag max-min 3.
For CCCCCCCC(=O)N1CCN(C(=O)c2cc(-c3ccc(Cl)cc3)n(-c3ccccc3OC)c2C)CC1 the results were NPYLR7 ag 3 and NPYLR7 ag max-min 9.
COc1ccc2sc(N(Cc3cccnc3)C(=O)C3COc4ccccc4O3)nc2c1 (centres undefined) was read as NPYLR7 ag -16 and NPYLR7 ag max-min -11.
Screening Cc1cc(C)nc(N2CCN(CCC(=O)O)CC2)n1 returned NPYLR7 ag 7 and NPYLR7 ag max-min 13.
Screening CN1CCc2ccccc2C1C1CCNCC1 (centres undefined) returned NPYLR7 ag -1 and NPYLR7 ag max-min -6.
For CCOC(=O)C(C#N)C1=NCCC1 (centres undefined) the results were NPYLR7 ag -5 and NPYLR7 ag max-min -13.
Screening Cc1ccc(C2(c3ccccc3)NC(=O)N(CN3CCN(C(=O)C4CC4)CC3)C2=O)cc1C (centres undefined) returned NPYLR7 ag -1 and NPYLR7 ag max-min -4.
CC(=O)N1CCCCC1C1=CCCN(CCSc2ccccc2)C1 (centres undefined) was read as NPYLR7 ag 17 and NPYLR7 ag max-min 7.
For Cc1cccc(C(=O)Nc2c3c(nn2C(C)(C)C)CSC3)c1 the results were NPYLR7 ag 0 and NPYLR7 ag max-min -1.
Nc1nnc(C23CC4CC(CC(C4)C2)C3)s1 was read as NPYLR7 ag -4 and NPYLR7 ag max-min -6.
`Cc1c(Cl)cccc1NC(=O)c1nn2c(C(F)(F)F)cc(-c3cccs3)nc2c1Cl` gave NPYLR7 ag -10 and NPYLR7 ag max-min -15.
`Cc1ccsc1C(O)c1nnc(Nc2c(C)cccc2C)s1` (centres undefined) gave NPYLR7 ag 3 and NPYLR7 ag max-min 2.
`O=C(Nc1ccc(Br)nc1Cl)c1cc(F)ccc1F` gave NPYLR7 ag 5 and NPYLR7 ag max-min 5.
For Cc1ccccc1-n1nc(C(C)(C)C)cc1NC(=O)C(Cc1ccccc1)NC(=O)/C=C/c1ccc([N+](=O)[O-])cc1 (centres undefined) the results were NPYLR7 ag -2 and NPYLR7 ag max-min 11.
`O=C1CC(c2ccccc2)Cc2nc3nc4ccccc4n3cc21` (centres undefined) gave NPYLR7 ag 11 and NPYLR7 ag max-min 5.
`C=CCN1C(=O)NC(=O)/C(=C/c2cccc(OCc3ccccc3Cl)c2)C1=O` gave NPYLR7 ag -6 and NPYLR7 ag max-min -6.
For CCCc1nc(N2CCN(Cc3ccc(F)cc3)CC2)c2cnn(-c3ccccc3)c2n1 the results were NPYLR7 ag -1 and NPYLR7 ag max-min 2.
For Cc1cccc(NC(=O)Nc2cccc3c2N(Cc2cc(=O)n(C)c(=O)n2C)CCC3)c1 the results were NPYLR7 ag -2 and NPYLR7 ag max-min 26.
For CC(C)C(=O)Nn1ccc2c(cnc3nc(-c4cccnc4)nn32)c1=O the results were NPYLR7 ag 0 and NPYLR7 ag max-min 3.
Screening O=C1CC(NCc2ccncc2)C(=O)N1c1cccc(Cl)c1 (centres undefined) returned NPYLR7 ag 1 and NPYLR7 ag max-min -1.
For CCC/C=C/c1ccc(Cl)c(C(=O)NC)c1 the results were NPYLR7 ag -2 and NPYLR7 ag max-min 3.
`Cc1ccc2sc(N(Cc3ccccn3)C(=O)C3=COCCO3)nc2c1C` gave NPYLR7 ag 1 and NPYLR7 ag max-min -7.
For O=C(NCCCc1ccccn1)c1ccc(N[C@H]2CCCC[C@@H]2O)nc1 the results were NPYLR7 ag 8 and NPYLR7 ag max-min 5.
Screening Cc1ccc(C2=NOC(CN(Cc3ccc(F)cc3)C(=O)c3ccccc3F)C2)cc1 (centres undefined) returned NPYLR7 ag 24 and NPYLR7 ag max-min 30.
COC(=O)C1CCN(C(c2ccc(F)cc2)C2Sc3nc(C)nn3C2=O)CC1 (centres undefined) was read as NPYLR7 ag 3 and NPYLR7 ag max-min -2.
COC(=O)N1CCC(=O)N(CCC#N)C[C@H]2COc3cc(OC)ccc3[C@H]21 was read as NPYLR7 ag 22 and NPYLR7 ag max-min 28.
`CCn1c(-c2ccccc2)csc1=Nc1ccc2[nH]c(=O)[nH]c2c1` gave NPYLR7 ag -22 and NPYLR7 ag max-min -22.
For CCOc1ccc(-c2nc(N3CCN(C(c4ccccc4)c4ccccc4)CC3)c3ccccc3n2)cc1 the results were NPYLR7 ag -1 and NPYLR7 ag max-min 5.
For CC(C)NC(=O)c1ccnc(N2CC(c3cccnc3)C2)c1 the results were NPYLR7 ag 29 and NPYLR7 ag max-min 13.
`CC1CCN(C(=O)Nc2c[nH]c3ccccc23)CC1` gave NPYLR7 ag 3 and NPYLR7 ag max-min -2.
For N#Cc1ccccc1NC(=O)c1cnc(-c2ccc3c(c2)OCO3)s1 the results were NPYLR7 ag 11 and NPYLR7 ag max-min 10.
`CCSc1nnc2c(n1)OC(c1cccc(C)n1)Nc1ccccc1-2` (centres undefined) gave NPYLR7 ag 7 and NPYLR7 ag max-min 1.
`Cc1c(Br)cccc1NC(=O)C1(C)CCN1Cc1ccccc1OC(F)F` (centres undefined) gave NPYLR7 ag 6 and NPYLR7 ag max-min -2.
`O=C1c2c(O)cccc2Cc2cccc(O)c21` gave NPYLR7 ag -9 and NPYLR7 ag max-min -14.
Screening Cc1nc(-c2ccc(C(=O)NC3CCc4ccc(F)cc43)cc2)n[nH]1 (centres undefined) returned NPYLR7 ag -2 and NPYLR7 ag max-min -2.
`O=C(NCCNc1cccnc1)c1ccc(-c2ccn[nH]2)cc1` gave NPYLR7 ag 29 and NPYLR7 ag max-min 18.
CC(=O)Nc1ccc(-c2csc(NC(=O)C3CC3C)n2)cc1 (centres undefined) was read as NPYLR7 ag 6 and NPYLR7 ag max-min 3.
CCn1cc(C(=O)NCc2c(F)cccc2F)c2nn(-c3ccccc3)c(=O)c-2c1 was read as NPYLR7 ag 7 and NPYLR7 ag max-min 7.
Screening Cn1c(NC(=O)c2ccc(F)cc2)cc(=O)n(C)c1=O returned NPYLR7 ag 9 and NPYLR7 ag max-min 10.
CCCCCSc1n[nH]c(-c2ccc(C)cc2)n1 was read as NPYLR7 ag 8 and NPYLR7 ag max-min 7.
COc1cccc2cc(C(=O)Nc3ccc(C(=O)O)cc3)c(=O)oc12 was read as NPYLR7 ag -2 and NPYLR7 ag max-min -9.
`CC(=O)O[C@@H](C)C(=O)N(C)c1ccc(-c2onc3c2CCc2ccccc2-3)cc1` gave NPYLR7 ag 3 and NPYLR7 ag max-min 7.
For CCOc1ccc(N2CC(NC(=O)N(C)C3CCN(C)CC3)CC2=O)cc1 (centres undefined) the results were NPYLR7 ag 8 and NPYLR7 ag max-min 4.
CCC1CCCCN1Cc1nc2c(c(=O)n(C)c(=O)n2C)n1Cc1ccccc1C (centres undefined) was read as NPYLR7 ag 1 and NPYLR7 ag max-min -2.
Screening COc1cc(=O)n(-c2ccccc2C)nc1C(=O)Nc1ccc(Br)cc1F returned NPYLR7 ag 0 and NPYLR7 ag max-min 0.
For CC(=O)NC1CCC(=NNc2cc(C)nc(C)n2)CC1 (centres undefined) the results were NPYLR7 ag 2 and NPYLR7 ag max-min 2.

5 structures already listed, sorted by length of the SMILES, highest first.
CCn1cc(C(=O)NCc2c(F)cccc2F)c2nn(-c3ccccc3)c(=O)c-2c1 was read as NPYLR7 ag 7 and NPYLR7 ag max-min 7.
Screening COc1cc(=O)n(-c2ccccc2C)nc1C(=O)Nc1ccc(Br)cc1F returned NPYLR7 ag 0 and NPYLR7 ag max-min 0.
COc1cccc2cc(C(=O)Nc3ccc(C(=O)O)cc3)c(=O)oc12 was read as NPYLR7 ag -2 and NPYLR7 ag max-min -9.
Screening Cn1c(NC(=O)c2ccc(F)cc2)cc(=O)n(C)c1=O returned NPYLR7 ag 9 and NPYLR7 ag max-min 10.
For CC(=O)NC1CCC(=NNc2cc(C)nc(C)n2)CC1 (centres undefined) the results were NPYLR7 ag 2 and NPYLR7 ag max-min 2.

Other records
Screening CCC(C)(C)NC(=O)c1cccn2c(C)nnc12 returned NPYLR7 ag -9 and NPYLR7 ag max-min -13.
Screening O=C(c1cccnc1)C1CCCN(c2nncc(-c3cc4ccccc4o3)n2)C1 (centres undefined) returned NPYLR7 ag 5 and NPYLR7 ag max-min 2.
`C=CCn1c(Cc2ccccc2)n[nH]c1=O` gave NPYLR7 ag 0 and NPYLR7 ag max-min -2.
Screening CCOc1ccc(-n2c(C(C)N(Cc3ccccc3)C(=O)Nc3ccccc3C(F)(F)F)nc3ccccc3c2=O)cc1 (centres undefined) returned NPYLR7 ag -6 and NPYLR7 ag max-min 5.
For Cc1ccc(-n2nc(C(=O)NCC3CC3)c(=O)n(Cc3ccc(C(F)(F)F)cc3)c2=O)cc1 the results were NPYLR7 ag 6 and NPYLR7 ag max-min 5.
For NC(=O)NC(CC(=O)NC1CCSc2ccccc21)c1ccc(Cl)cc1 (centres undefined) the results were NPYLR7 ag 3 and NPYLR7 ag max-min 2.
`Cc1ccc(C(=O)N(C)C2(C)CCS(=O)(=O)C2)cc1` (centres undefined) gave NPYLR7 ag 10 and NPYLR7 ag max-min 8.
For O=C(Nc1cccc(-c2ccc(F)cc2)c1)C1CCCN(C(=O)CC2CC2)C1 (centres undefined) the results were NPYLR7 ag -3 and NPYLR7 ag max-min -7.
COCCC(C)NC(=O)NCC(c1cnn(C)c1)N(C)C (centres undefined) was read as NPYLR7 ag 5 and NPYLR7 ag max-min 2.
`Cc1ncsc1CCN(C)C(=O)c1ccccc1C1CCNC1` (centres undefined) gave NPYLR7 ag 4 and NPYLR7 ag max-min 4.
`O=C(c1ccccc1)c1c(-c2ccccc2)c2c(=O)n3c(nc2[nH]c1=O)CCC3` gave NPYLR7 ag -2 and NPYLR7 ag max-min -4.
Screening CCC(=O)Nc1ccc(O)c(C(=O)N2CCN(c3cccc(C)c3C)CC2)c1 returned NPYLR7 ag 13 and NPYLR7 ag max-min 8.
`Nc1nc(NCCc2ccc(O)cc2)nc2nc(-c3ccco3)nn12` gave NPYLR7 ag 7 and NPYLR7 ag max-min -7.
`Cc1nn(Cc2ccccc2)c(C)c1CNS(=O)(=O)c1ccc(Br)cc1Cl` gave NPYLR7 ag 0 and NPYLR7 ag max-min -5.
Screening CSc1cccc(NS(=O)(=O)c2ccc(C)cc2)c1 returned NPYLR7 ag -4 and NPYLR7 ag max-min -6.
`N#Cc1ccc(C(=O)Nc2ccc3n(c2=O)C[C@H]2C[C@@H]3CN(S(=O)(=O)c3cccc4cccnc34)C2)cc1` gave NPYLR7 ag -11 and NPYLR7 ag max-min -18.
O=C(NCc1cccc(N2CC=CC2)c1)Nc1ccccc1C(F)(F)F was read as NPYLR7 ag -3 and NPYLR7 ag max-min -4.
C=CCn1cc(CN2CCOC(c3ccc(OC)cc3)C2)c(C)n1 (centres undefined) was read as NPYLR7 ag 6 and NPYLR7 ag max-min -5.
O=C(NCCc1c[nH]c2ccc([N+](=O)[O-])cc12)c1ccccc1Br was read as NPYLR7 ag -4 and NPYLR7 ag max-min -9.
For CCOc1cc(C=Nc2c(C)n(C)n(-c3ccccc3)c2=O)ccc1O the results were NPYLR7 ag 18 and NPYLR7 ag max-min 9.
`CC(=O)Nc1ccccc1NC(=O)CN[C@H]1CCCN(Cc2ccccc2)C1` gave NPYLR7 ag 7 and NPYLR7 ag max-min 2.

Random excerpt: 2 compounds from above.
`N#Cc1ccc(C(=O)Nc2ccc3n(c2=O)C[C@H]2C[C@@H]3CN(S(=O)(=O)c3cccc4cccnc34)C2)cc1` gave NPYLR7 ag -11 and NPYLR7 ag max-min -18.
COCCC(C)NC(=O)NCC(c1cnn(C)c1)N(C)C (centres undefined) was read as NPYLR7 ag 5 and NPYLR7 ag max-min 2.

Structures above with two or more sulfur atoms, in the order listed:
`Cc1ccsc1C(O)c1nnc(Nc2c(C)cccc2C)s1` (centres undefined) gave NPYLR7 ag 3 and NPYLR7 ag max-min 2.
Screening CSc1cccc(NS(=O)(=O)c2ccc(C)cc2)c1 returned NPYLR7 ag -4 and NPYLR7 ag max-min -6.
